Ba CapD inh = Bacillus anthracis CapD inhibitors, primary screen, biochemical, fluorescence intensity; 140,000 tested, 0.23% active; z-score (concentration not given with the values); purified CapD enzyme, fluorescence intensity read-out; active compounds read low; some hits fall short of the stated cut; CapD gamma-glutamyltranspeptidase (Bacillus anthracis Ames Ancestor);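 active = z-score under -4 in either of two replicates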;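 also: stock transfer was 100 nL into about 40 µL; score is relative to mean and spread of the plate; one replicate is shown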
AID504770 = growth inhibition of E. coli YBA685, primary screen, V. cholerae RctB inhibitors | E. coli YBA685 rctB-dependent plasmid, OD600 growth, 3 h; active compounds read low | z-score (test concentration not listed) | 130,000 tested, 0.27% active | AID 504770, 2011;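 active = z-score under -2 on both plates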;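 also: wells of about 30 µL received 100 nL stock; score is relative to mean and SD of the test wells; the first replicate is given; strong numbers were not always called active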
The depositor's hits bear a star; i = inactive; . = not tested or not shown.

Below each compound – Ba CapD inh | AID504770
O=C(Nc1ccc(C(=O)O)c(O)c1)c1cccs1
    . | -0.95
Cc1ccc(C2/C(=C(\O)c3ccc(F)cc3)C(=O)C(=O)N2c2nnc(C)s2)cc1 (configuration not stated)
    -0.29 | .
O=C(Oc1ccc2oc3c(c2c1)CCCC3)c1ccco1
    0.06 | 1.1
O=C(CSc1nnc(-c2ccncc2)n1Cc1ccco1)c1ccc(Br)cc1
    -0.29 | .
CCN(CC)c1ccc(/C=N/O)cc1
    39 | 0.7
Cc1onc(-c2ccccc2)c1CNS(=O)(=O)c1ccccc1
    0.62 | 0.45
COc1cc(CN2CCCCC2COC(=O)N2CCN(c3ccc(C(F)(F)F)cc3)CC2)cc2c1OCO2 (configuration not stated)
    0.79 | .
CCN(Cc1ccccc1)C(=O)C1CCN(Cc2ccc(OC)cc2)CC1
    -0.53 | 0.15
CC1CCc2sc(NC(=O)Cc3ccccc3)c(C(N)=O)c2C1 (configuration not stated)
    i | 0.5
COC(=O)NC(c1ccccc1)c1ccccc1
    . | -0.1
O=C(Nc1ccc(Cl)cc1)c1ccccc1Cl
    0.49 | .
O=C(NCCO)c1sc2cc(F)ccc2c1Cl
    . | 0
CCOc1ccc(NC(=O)c2sc(C)c(CC(=O)Nc3ccc(Cl)cc3)c2O)cc1
    0.02 | 0.45
FC(F)(F)c1ccccc1/C=N/n1cn[nH]c1=S
    . | -0.75
COc1ccc(Cl)cc1NC(=O)CN(C)c1nnnn1-c1ccccc1
    . | -0.2
COc1ccc(C(=O)/C=C/Nc2ccccc2C#N)cc1
    0.39 | 1.1
COc1ccc(NS(=O)(=O)c2ccc3[nH]c(=O)c(=O)[nH]c3c2)cc1OC
    -0.85 | -0.35
Cc1cc(C)cc(OCCSc2nccn2C)c1
    . | -0.8
O=C(Nc1ccccc1)c1ccc(Sc2ccc(Cl)cc2)c([N+](=O)[O-])c1
    0.36 | .
O=C(Oc1cccc2c1C(=O)C=CC2=O)c1ccccc1
    -0.6 | -0.1
O=C(CCC(=O)N1CCC(C(O)(c2ccccc2)c2ccccc2)CC1)c1ccc(F)cc1
    -0.36 | .
Cc1ccc(-c2nc(C)sc2CC(=O)O)cc1
    0.31 | 0.4
Cc1noc(-c2ccc(C(F)(F)F)cc2)c1C(=O)NNC(=O)c1ccc(-n2nc(-c3ccccc3)cc2-c2ccccc2)cc1
    -0.3 | .
Cc1ccc(S(=O)(=O)N2CCN(C(=O)c3ccccc3)C2c2ccccc2)cc1 (configuration not stated)
    6.2 | 0
CN(C)c1ccc(C2Nc3ccc4ncccc4c3C3=C2C(=O)CC(C)(C)C3)cc1 (configuration not stated)
    -0.46 | .
Cn1c(SCCCn2c(=O)[nH]c3ccccc32)nnc1C1COc2ccccc2O1 (configuration not stated)
    . | -0.3
Cc1nnc(C)n1/N=C/c1ccc(N(C)CCO)cc1
    . | 0.05
CNS(=O)(=O)c1cccc(C(=O)OCc2cc(=O)oc3c(C)c(O)ccc23)c1
    . | 0.25
COc1ccc(S(=O)(=O)Nc2ccccc2-c2cnn(C(C)C)c2)cc1
    -0.8 | .
COc1ccc(C2(CNC(=O)C(=O)NC(C)CCc3ccccc3)CCCC2)cc1OC (configuration not stated)
    1.5 | .
Clc1ccc2c(c1)C(c1ccccc1)OC(c1ccc(Br)cc1)N2 (configuration not stated)
    0.08 | .
COCCN(CCOC)c1nc(-c2ccc([N+](=O)[O-])cc2)nc2ccccc12
    0.16 | .
Cc1cccc(CCNC(=O)C2CCN(S(=O)(=O)c3ccc(-n4cnnn4)cc3)CC2)c1
    -0.03 | -0.75
Cc1onc(-c2ccc(Cl)cc2)c1-c1ccnc(SCC(=O)c2ccccc2)n1
    0.62 | -1.6
COc1ccc2nc(Cl)c3nnnn3c2c1
    10 | 1.4
O=S(=O)(c1ccc(Cl)s1)N(Cc1ccco1)CC1CCCO1 (configuration not stated)
    -1.1 | .
O=C(c1cc2cc(Br)ccc2oc1=O)N1CCN(Cc2ccccc2)CC1
    0.76 | .
CNC(=O)c1ccsc1NC(=O)/C=C/c1ccccc1
    -0.76 | 0.8
Cc1ccc2[nH]c3c(c2c1)CCc1cn[nH]c1-3
    136 | -0.15
Cc1ccccc1-n1cnnc1SCc1nnc(-c2ccccc2Br)o1
    . | 0.4
O=C(O)CC1c2ccccc2Oc2ccccc21
    . | -0.8
O=c1/c(=C/c2ccccc2Cl)sc2nc(-c3ccccc3)nn12
    -0.47 | .
O=C(NCc1ccco1)c1csc(C2COc3ccccc3O2)n1 (configuration not stated)
    0.12 | -0.3
O=C(/C=C/c1ccc(S(=O)(=O)N2CCOCC2)cc1)Nc1nccs1
    . | 1.6
COc1ccccc1-c1nnc(SCC(=O)OC(C)C)n1-c1ccccc1
    . | 1.5
CN1CCC(N(C)C(=O)c2nn(Cc3ccccc3)c(=O)c3ccccc23)CC1
    . | -0.4
CC(NCc1cc2ccccc2cc1O)C(=O)O (configuration not stated)
    -0.29 | .
COC(=O)c1sccc1NC(=S)Nc1ccccc1Cl
    -0.55 | .
CCCCNC(=O)Cn1c(=O)n(C)c2ccccc21
    0.32 | 0.1
O=C(C1CCCCN1S(=O)(=O)c1ccccc1)N1CCCCC1 (configuration not stated)
    0.3 | -0.75
Cc1cc(C(=O)Nc2cc(C)n(Cc3ccc(Cl)cc3)n2)on1
    -0.17 | -0.8
O=C(Nc1ccc2c(c1)C(=O)OC2)c1ccccc1
    -0.1 | -0.35
O=C(O)CCC(=O)N1N=C(c2cccs2)CC1c1ccccc1O (configuration not stated)
    . | -0.3
CCn1c(Cc2nnc(SCC(=O)c3ccc(F)cc3)n2CC)nnc1SCC(=O)c1ccc(F)cc1
    . | 0.2
COc1cc(NC(=O)CNCc2ccc(Cl)cc2)ccc1-n1cnnn1
    . | 0.65
CCn1cc(C(=O)NCC23CC4CC(CC(C4)C2)C3)c(=O)c2ccc(C)nc21
    . | -0.1
OCC1=CC[N+]2(Cc3ccccc3)CCC(O)C12 (configuration not stated)
    . | 0.45
CCCc1[nH]n(-c2ccc(F)cc2)c(=O)c1C=Nc1cccc2ccccc12
    -0.07 | .
CCS(=O)(=O)c1nc2ccccc2n1Cc1ccccn1
    . | -0.75
CCCNC(=O)C1CN(CC(=O)NC2CCCCC2)c2ccccc2O1 (configuration not stated)
    . | 0.65

(more compounds)
Below each compound – Ba CapD inh | AID504770
CCSc1nnc(Cn2c(=O)sc3ccccc32)n1C
    -0.52 | -1.1
Cc1ccccc1N=C1c2ccccc2-c2ncccc21
    6 | .
CCCNC(=O)c1cnc(Sc2ncc(C(F)(F)F)cc2Cl)n1C
    0.02 | .
Cc1ccc2c(c1)CCCN2C(=O)Cc1c(C)noc1C
    . | 0.95
O=C(NNC(=O)c1cncc(Br)c1)OCCN1CCN(Cc2cc3ccccc3o2)CC1
    0.16 | .
O=C1NC(=O)/C(=C\c2ccc(OCc3ccc(Br)cc3)cc2)S1
    -0.01 | .
CCOC(=O)c1c(NC(=O)CSc2ncnc3sc(C)c(C)c23)sc2c1CCC2
    -0.085 | .
Cn1ccnc1C(O)c1ccc(N)cc1 (configuration not stated)
    . | 0.35
CCc1ccccc1N1CCN(C(=O)C2CC2C(=O)O)CC1 (configuration not stated)
    -0.51 | .
N#Cc1ccccc1OCc1csc(-c2cccs2)n1
    . | 0.8
CCCCn1cnc2c(cnn2-c2ccc(F)cc2)c1=O
    -0.065 | -0.25
O=C(Nc1c2c(nn1-c1ccccc1)CSC2)c1ccc(Cl)cc1
    . | 0.4
CN(C)CC(=O)c1ccc2cc[nH]c2c1
    8.7 | 0.3
COc1ccc(C2N3CCc4ccccc4C3CN2S(=O)(=O)c2ccccc2)cc1 (configuration not stated)
    -0.14 | .
CCN(CC)Cc1cccc2cccnc12
    -0.045 | 0.95
O=C(CN1C=NS(=O)(=O)c2ccccc21)NCCc1ccccc1
    -1.5 | 0.2
CS(=O)c1nc(-c2ccccc2)cc(C(F)(F)F)n1 (configuration not stated)
    0.76 | -0.2
CCOC(=O)C1=CN(Cc2ccc(Cl)cc2)C=C(C(=O)OCC)C1c1cc(Br)c(O)c(OC)c1
    3.8 | .
Cc1cc(C)nc(NS(=O)(=O)c2ccc(NC(=O)c3ccccc3[N+](=O)[O-])cc2)n1
    -0.46 | .
O=C(O)CSc1c2c(nc3cc(C(=O)N4CCCC4)ccc13)CCCC2
    -0.95 | -0.25
c1ccc(Nc2nncs2)cc1
    . | -1.6
O=C(O)c1ccc(CSCc2ccccc2)o1
    -0.085 | -0.8
Cc1cc(=O)oc2cc(OCc3cccc(F)c3)ccc12
    -0.53 | -0.5
Cc1ccc(Cl)cc1N1CCN(C(=O)c2ccccc2CC(=O)O)CC1
    1.5 | .
CCN(c1cccc(C)c1)C1C(=O)c2ccccc2N1C(C)=O (configuration not stated)
    1.1 | -0.05
CCCn1cnc2sc(C(=O)O)c(C)c2c1=O
    . | -0.15
CC(=O)N1C(=S)NC(=O)C1c1ccccc1 (configuration not stated)
    -0.4 | -1.3
Cc1cc(NC(=O)c2ccco2)no1
    . | -0.95
CC1=[N+]([O-])C(C)(C)C(c2ccc(C)o2)=[N+]1[O-]
    -0.42 | -0.65
O=C1CCC(C2CCC(=O)CC2)CC1
    -0.15 | -0.55
N#CNC(=Nc1cccc(Cl)c1)Oc1ccccc1
    0.45 | -0.35
CN(C)CCCn1c(N)c2c3c(sc2nc1=O)COC(C)(C)C3
    3.3 | -0.95
CCOC(=O)NC1c2ccccc2Sc2ccc(Cl)cc21 (configuration not stated)
    -0.12 | 0.5
COc1ccccc1C1CCN(C(=O)OCCn2nc(-c3ccccc3)cc2-c2ccccc2)CC1
    0.38 | .
CCN(CC)c1ccc(C2N(C(=O)c3ccccc3)CCN2C(=O)c2ccccc2)cc1
    -0.015 | .
O=C(O)CSCC(=O)Nc1ccccn1
    0.92 | -0.7
CCc1ccc(N(C(C)=O)c2nc(CSc3nnc4n3CCCCC4)cs2)cc1
    . | -0.45
CSc1nsc(SCC#N)n1
    . | -0.2
Cc1ccc(Nc2nc(=O)[nH]nc2C)cc1Cl
    -0.08 | -0.2
COCC(=O)Nc1sccc1C(=O)OC
    0.63 | 0.45
O=C(NCc1ccccc1)N1CCC(CN2CCCCC2)CC1
    -0.22 | -0.85
NC(=O)c1ccccc1OCc1cn2cc(Cl)ccc2n1
    . | 0
O=C(O)CC1(C(F)(F)F)OCCO1
    -0.53 | -0.15
CCCOc1c(Br)cc(Br)cc1/C=C1\NC(=S)NC1=O
    0.18 | .
CCN(CC)C(=S)SC1CC(=O)N(c2ccc(S(=O)(=O)NC(C)=O)cc2)C1=O (configuration not stated)
    -0.14 | -0.4
COc1cccc(OC)c1C(=O)NNC(=O)c1ccccc1-n1cccc1
    0.36 | .
O=C(c1ccc(CS(=O)(=O)c2ccc(Br)cc2)o1)N1CCC2(CC1)OCCO2
    -0.74 | 0.3
O=C(Nc1ccc2c(c1)OCCCO2)c1cn(-c2ccccc2)nc1-c1cccs1
    . | -0.2
Cc1ccc(S(=O)(=O)Nc2cc3c4c(oc3c3ccccc23)CCCC4)cc1
    0.16 | .
CC1C=CC(C)C(C(=O)O)C1C(=O)O (configuration not stated)
    -2.1 | -0.7
COc1cc2c(cc1OC)CN(C(=S)NCCCN1CCOCC1)CC2
    . | 0.3
CCOC(=O)c1cc2c(c(CSc3nc4sc(C(=O)OCC)c(C)c4c(=O)n3CC3CCCO3)c1)OCOC2 (configuration not stated)
    -0.53 | .
O=C(O)c1cccc(Oc2ncccn2)c1
    . | -1.6
Nc1nc(-c2ccc(Br)cc2)cc(C(F)(F)F)n1
    9.1 | .
CCc1ccc(N2C(=O)C3C(c4cccc(Cl)c4)OC4(C(=O)c5ccccc5C4=O)C3C2=O)cc1 (configuration not stated)
    1.4 | .
COc1ccc(CC/C(C)=C2/C(=O)Nc3ccccc32)cc1
    0.85 | 0.75
O=S(=O)(c1cccc(C(F)(F)F)c1)N1CCC(N2CCCCC2)CC1
    -0.66 | -1
C=CCn1c(=NC(=O)/C=C/c2ccccc2)sc2cc(NC(C)=O)ccc21
    -0.15 | 1.2
Cc1onc(-c2ccccc2)c1CNC(=O)c1c(-c2ccc(F)cc2)noc1C
    -0.39 | -0.2
CCCCC1CCC(C(=O)Nc2nonc2C)CC1 (configuration not stated)
    0.6 | -1

In the list so far, three contain a nitro group on carbon:
Below each compound – Ba CapD inh | AID504770
O=C(Nc1ccccc1)c1ccc(Sc2ccc(Cl)cc2)c([N+](=O)[O-])c1
    0.36 | .
COCCN(CCOC)c1nc(-c2ccc([N+](=O)[O-])cc2)nc2ccccc12
    0.16 | .
Cc1cc(C)nc(NS(=O)(=O)c2ccc(NC(=O)c3ccccc3[N+](=O)[O-])cc2)n1
    -0.46 | .

Continued.
Below each compound – Ba CapD inh | AID504770
CC(=O)N1CCN(C(=O)CSc2nc(-c3ccccc3)c(-c3ccccc3)[nH]2)CC1
    . | -0.05
CCOC(=O)Nc1ccc(F)cc1F
    -0.14 | .
Cc1ccc(S(=O)(=O)N2CCCC2c2cccnc2)cc1 (configuration not stated)
    0.36 | 0.05
N=c1c2c(-c3ccccc3)c(-c3ccccc3)oc2ncn1CCN1CCOCC1
    30 | -0.2

Some of the entries so far, as a markdown table.
| Molecule | Ba CapD inh | AID504770 |
| --- | --- | --- |
| Cc1ccc(S(=O)(=O)N2CCCC2c2cccnc2)cc1 (configuration not stated) | 0.36 | 0.05 |
| N=c1c2c(-c3ccccc3)c(-c3ccccc3)oc2ncn1CCN1CCOCC1 | 30 | -0.2 |

Source: PubChem BioAssay (ICCB-Longwood Screening Facility, Harvard Medical School)
